Marburg entry inh: inhibitors of Marburg virus binding or cell entry | Marburg virus pseudotyped entry inhibition, cell reporter; control for the full effect not named in the record; about a third of the inactives were read at about 46 µM | Potency, µM (doses to about 37.8 µM), for the others: top-dose activity change, negative = inhibition, most hits filed as inhibitors | 300,000 tested, 1.8% active | AID 540276; active = well fitted inhibition curve with a large enough effect; inconclusive = small, poorly fitted or top-dose-only effect, or effect the other way; inactive = flat fitted curve, though single readings scatter; tested in HEK293 cells; about a fifth of its hits are not listed in these tables; also: % is scaled to controls: 0 for no effect and ±100 for the full control effect; luciferase read-out
SARS PLP yeast: SARS-CoV PLP inhibition in yeast. Potency, µM (titrated, usually from 32.9 µM), for inactives: top-dose activity, positive = growth rescue. S. cerevisiae expressing SARS-CoV PLpro, growth rescue; control for the full effect not named in the record. AID 485353. 330,000 tested, 0.19% active; also: 0% is about no effect; nearly all actives have a fitted effect of over 55% in size; growth read by luminescence after 48 h
NS1 function inh: inhibitors of influenza NS1 protein function. Potency, µM (titrated, usually from 46.1 µM), without a hit: top-dose activity, positive = more growth. 270,000 tested, 0.4% active. S. cerevisiae slowed by influenza A NS1, growth recovery by OD600; also: actives are rising curves; nearly all actives have a fitted effect of over 50% in size
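Growth recovery, yeast-based: influenza A NS1 expressed in S. cerevisiae causes slow growth, and suppressors are detected by OD600. The parent strain without NS1 is used as positive control.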
RE007 growth inh: less growth of the S. pombe RE007 Vpr strain; Potency, µM (top dose mostly 92.2 µM), without a hit: top-dose activity change, negative = less growth; 360,000 tested, 0.21% active; AID 651644; S. pombe RE007 Vpr strain, BacTiter-Glo ATP luminescence, 24 h; control for the full effect not named in the record; active = well fitted falling curve with a large enough effect; inconclusive = small, poorly fitted or top-dose-only effect; inactive = no such curve, though single readings can be large or run the other way;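 also: % is scaled to controls: 0 for no effect and ±100 for the full control effect; nearly all actives have a fitted effect of over 50% in size; the assay follows cell death caused by Vpr and the record does not say whether a fall means rescue or toxicity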
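Fission yeast strain RE007, carrying one chromosomally integrated HIV-1 vpr copy, was seeded at OD 0.01 in PMG+AL medium with 23 nL pinned compound. After 24 h at 30 °C and 99% humidity, viability was read by BacTiter-Glo luminescence.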
Lassa entry inh: inhibitors of Lassa virus binding or cell entry; Lassa virus pseudotype entry inhibition, cell reporter; control for the full effect not named in the record; Potency, µM (top dose mostly 37.9 µM), without a hit: top-dose activity change, negative = inhibition, hits mostly inhibitors; 300,000 tested, 1.2% active; active means well fitted inhibition curve with a large enough effect; inconclusive means small, poorly fitted or top-dose-only effect, or effect the other way; inactive means flat fitted curve, though single readings scatter; tested in HEK293 cells; also: % is scaled to controls: 0 for no effect and ±100 for the full control effect; nearly all actives have a fitted effect of over 50% in size; luciferase read-out
Cruzain noTriton: cruzain (T. cruzi) inhibition without detergent | 200,000 tested, 2.3% active | purified cruzain, Z-FR-AMC fluorescence, no detergent | Potency, µM, for inactives: max response, negative = inhibition, usual class: inhibitors; active = well fitted curve in the direction sought with a large enough effect; inconclusive = small, poorly fitted or top-dose-only effect, or another doubt; inactive = no such curve, though single readings can be large; an effect the other way counts as inactive or inconclusive;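 also: plate controls were enzyme without inhibitor for no effect and buffer without enzyme for full effect; nearly all actives have a fitted effect of over 40% in size; top concentration of the series not given in the record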
Target sequence (P25779 123-467 limits assumed): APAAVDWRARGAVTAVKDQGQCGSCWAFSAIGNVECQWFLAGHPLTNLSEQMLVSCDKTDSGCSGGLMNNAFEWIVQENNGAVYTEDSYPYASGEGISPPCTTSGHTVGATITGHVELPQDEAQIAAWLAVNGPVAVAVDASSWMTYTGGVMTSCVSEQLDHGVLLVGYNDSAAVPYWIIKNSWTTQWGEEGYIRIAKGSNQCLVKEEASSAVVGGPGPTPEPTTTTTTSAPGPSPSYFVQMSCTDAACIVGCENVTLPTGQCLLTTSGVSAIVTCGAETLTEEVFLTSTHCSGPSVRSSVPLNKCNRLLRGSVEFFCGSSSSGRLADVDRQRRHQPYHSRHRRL
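Purified cruzain at 1.5 nM, pre-incubated 15 min with compound at room temperature in 100 mM sodium acetate pH 5.5, 5 mM DTT, 0.00005% Triton X-100. Reaction started with 2 uM Z-FR-AMC; AMC fluorescence increase over 60 s gives rate.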
2A StopGo: lowers the luciferase signal of an FMDV 2A StopGo reporter; Potency, µM (series often up to 57.9 µM), for the others: at the top dose signal change, negative = less light; human cells with a luciferase reporter of 2A StopGo recoding; control for the full effect not named in the record; 410,000 tested, 1.2% active; active = well fitted falling curve with a large enough effect; inconclusive = small, poorly fitted or top-dose-only effect; inactive = no such curve, though single readings can be large or run the other way; tested in HEK293T cells; also: % is scaled to controls: 0 for no effect and ±100 for the full control effect; nearly all actives have a fitted effect of over 45% in size; luciferase light after 4 h
Cruzain inh Det: blocks cruzain activity in presence of Triton detergent; P25779; purified cruzain, Z-FR-AMC fluorescence, 0.01% Triton; 200,000 tested, 0.43% active; Potency, µM, for inactives: max response, negative = inhibition, usual class: inhibitors; AID 1478; active = well fitted curve in the direction sought with a large enough effect; inconclusive = small, poorly fitted or top-dose-only effect, or another doubt; inactive = no such curve, though single readings can be large; an effect the other way counts as inactive or inconclusive;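 also: plate controls were neutral wells for no effect and buffer without enzyme for full effect; nearly all actives have a fitted effect of over 40% in size; top concentration of the series not given in the record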
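Steps: dispense cruzain (1.5 nM final) in acetate buffer pH 5.5 with DTT and 0.01% Triton X-100; pin-transfer compounds; incubate 15 min RT; add Z-FR-AMC (2 uM final); read fluorescence every 30 s, using the 60 s intensity change.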
* hit, by the source's call; ? = inconclusive; · = no result given; [ ] = dose if it differs, or a comment. Unless noted, calls follow the shape of the dose curve; as a rule, active means well fitted rising curve with a large enough effect; inconclusive means small, poorly fitted or top-dose-only effect; inactive means no such curve, though single readings can be large or run the other way. Potency is read from the fitted curve at half-maximal effect.

SMILES	Marburg entry inh	SARS PLP yeast	NS1 function inh	RE007 growth inh	Lassa entry inh	Cruzain noTriton	2A StopGo	Cruzain inh Det
O=C(Nc1ccc(CSc2ccccc2)cc1)c1ccccc1	-6%[46.1 µM]	-1%	3%	1%	18%	·	18%	·
O=C(Nc1ccccn1)C1COc2ccccc2O1 (stereo not given)	9%	11%	4%	-9%	15%	4%	·	-0.9%
Clc1ccc(CSc2nnc(-c3ccncc3)s2)cc1	?	-1%	-2%	-16%	-3%	·	-13%	·
O=C(C1=C[C@H](c2ccccc2)C[C@H](OCCCCO)O1)N1CCN(Cc2ccc3c(c2)OCO3)CC1	·	1%	-9%	2%	·	·	-13%	·
O=C(CSc1nnc(-c2ccccc2)n1C1CCCCC1)N1CCCC1	-1%	0%	-9%	12%	0%	9%	·	2.6%
O=C(c1cnn2ccccc12)N(Cc1ccco1)C1CCCC1	·	-5%	-2%	9%	·	-8%	-11%	-3.6%
CCOc1ccccc1NC(=S)NC(=O)CCc1ccccc1	·	1%	10%	7%	·	·	-27%	·
CC(C)(/C=N/O)/[N+]([O-])=C/c1ccccc1	0%[46.1 µM]	0%	-1%	0%	0%	·	7%	·
COc1ccc(Cl)cc1NC(=S)NNC(=O)c1cccs1	·	0%	-3%	17%	·	·	22%	·
Cc1ccc(Sc2ccc(N3CCC(C(=O)Nc4cc(C)cc(C)c4)CC3)nn2)cc1	-8%[46.1 µM]	·	·	·	17%[46.1 µM]	0%	-7%	-11%
O=C(NCCCNC(=O)c1ccco1)c1cccc(F)c1	2%[46.1 µM]	15%	18%	-3%	?	·	6%	·
COc1cccc2c1Oc1ncccc1N(C(=O)CCC(=O)NCCC(C)C)C2	·	·	·	·	17%[46.1 µM]	-1%	-14%	-1.4%
CCCOc1cccc(C(=O)NC(=S)Nc2ccc(N3CCN(C)CC3)cc2)c1	-2%[46.1 µM]	5%	-1%	6%	11%	·	-21%	·
CCOc1ccc(CCNC(=O)COC(=O)CNC(=O)c2ccc(Br)o2)cc1OCC	9%[46.1 µM]	2%	·	20%	9%	·	-11%	·
O=C(Nc1cccc2ncccc12)c1ccc(-c2ccc(Cl)cc2Cl)o1	?	4%	-10%	-6%	?	-11%	-16%	-5.2%
Cc1ccccc1N(C(=O)Cc1cccs1)C(C(=O)NC1CCCCC1)c1cn(C)nc1C (stereo not given)	?	17%	10%	·	9%	12%	26%	0.2%
COc1ccc(NC(=O)CSc2nc3ccccc3nc2N2CCOCC2)cc1	·	14%	-10%	11%	·	·	-21%	·
CC(C)n1c(N2CCN(C(=O)Nc3ccc(F)cc3F)CC2)nc2ccccc21	-18%[46.1 µM]	-4%	?	-9%	-16%	-10%	-15%	2.1%
CCOC(=O)c1cnc2ccc(C(=O)OC)cc2c1NCCN1CCOCC1	-26%	3%	-8%	-14%	1%	2%	·	-3.6%
CNC(=O)c1c(NC(=O)CCS(=O)(=O)c2ccc(Cl)cc2)sc2c1CCN(C(=O)OC)C2	7%[46.1 µM]	2%	·	-2%	15%	·	-15%	·
O=C(N/N=C/c1ccoc1)c1ccccc1F	·	4%	6%	1%	·	·	36%[activator]	·
Cc1sc2nc(C(C)(C)C)oc(=O)c2c1C	22%	-8%	6%	2%	5%	1%	4%	1.7%
N=c1c2c(n(Cc3ccc(Cl)cc3)c3c1CCC3)CCC2	?	-8%	-23%	-13%	?	-8%	?	-0.2%
COC(=O)c1ccc(N(CC(=O)NC2CCCC2)C(=O)CNC(=O)c2ccco2)cc1	3%	2%	-5%	-5%	5%	-9%	-17%	-5.5%
CCC(=O)Nc1nc(C)c(-c2csc(Nc3ccc(S(=O)(=O)Nc4cc(C)on4)cc3)n2)s1	0%	4%	19%	·	·	-18%	·	-0.9%
COc1ccc(C(=O)CC(=O)c2ccc(OC)cc2)cc1	23%	0%	-9%	2%	2%	·	27%	·
CCc1ccccc1NC(=O)Cn1c(=O)n(-c2ccc(C)cc2)c(=O)c2cc(OC)c(OC)cc21	2%[46.1 µM]	·	·	·	21%[46.1 µM]	3%	-7%	0.1%
Cc1ccc(NC(=O)CSc2nc(-c3ccco3)cc(C(F)(F)F)n2)cc1	?	·	·	·	-21%[46.1 µM]	1%	-25%	-2.1%
O=[N+]([O-])c1cc2c(cc1CN1CCN(c3ccccc3F)CC1)OCO2	·	-7%	0%	-8%	·	·	-26%	·
Cc1ccc(C(=O)N[C@@H](Cc2ccccc2)C(=O)N2CCC3(CC2)NCCc2[nH]cnc23)cc1C	·	18%	4%	0%	·	·	-11%	·
Cc1cccc(NC(=O)COc2cccc3c(=O)n(C)ccc23)c1C	·	·	·	·	-16%[46.1 µM]	2%	?	-4.6%
CCN(CC)C(=O)Oc1cc(=O)n(C)c2ccccc12	10%	-16%	-2%	-4%	5%	0%	-1%	-3.5%
Cc1ccc(C)c(N2CCN(S(=O)(=O)c3c(C)nc4sccn4c3=O)CC2)c1	2%[46.1 µM]	·	·	·	-12%[46.1 µM]	-2%	0%	-0.9%
Cc1ccc(-n2nc(C(=O)N3CCN(c4cccc(C(F)(F)F)c4)CC3)c(=O)n(C)c2=O)cc1	·	·	·	·	?	?	0%	-9.2%
O=c1oc2ccc(Cl)cc2cc1-c1nc(-c2cccs2)no1	·	·	·	·	24%[46.1 µM]	6%	4%	0.3%
CCN(CC)CCN(C(=O)c1cc2c(ccc3ccccc32)oc1=O)c1nc2cc3c(cc2s1)OCCO3	?	-7%	-7%	-3%	11%[46.1 µM]	·	-2%	·
CN(C1CCCCC1)S(=O)(=O)c1ccc(S(=O)(=O)N(CC(=O)Nc2ccccc2)C2CC2)cc1	·	0%	-1%	5%	·	·	0%	·
O=C(CCc1nnc(CCCCc2ccccc2)o1)N(CCO)Cc1ccccc1	?	1%	1%	2%	-20%[46.1 µM]	·	-2%	·
COc1ccc(NC(=O)c2c(NCc3cccc(F)c3)sc3c2CCCC3)c(OC)c1	·	·	·	·	-10%[46.1 µM]	-14%	40%[activator]	-8.9%
CCOc1cccc(Nc2cc3n(c(=O)n2)CCc2cc(OC)c(OC)cc2-3)c1	-2%	7%	7%	-2%[3.69 µM]	0%	-8%	0%	-11%
O=C(O)C1C2C=CC(C2)C1C(=O)NCCCN1CCCC1=O (stereo not given)	·	-2%	7%	9%	·	·	-16%	·
C=C1CCN([C@@H](C)C(=O)NCc2cc(OC)c(OC)c(OC)c2)S(=O)(=O)c2ccccc21	4%	1%	8%	-7%	·	·	-9%	·
CCCS(=O)(=O)N1CCC(C(=O)NCCCOC(C)C)CC1	8%	-13%	2%	-3%	8%	4%	-11%	-3.2%
C=CCn1c(O)c(C(CC)=Nc2ccccc2NC(=O)CC)c(=O)[nH]c1=O	9%	3%	?	1%	4%	0%	24%	7.8%
CCSc1ccccc1C(=O)NCCc1ccccc1	·	-1%	-7%	-5%	·	·	4%	·
CC(Nc1nc(N2CCCC2)nc2ccccc12)c1ccccc1 (stereo not given)	?	?	-38%	-7%	13µM*	-5%	?	-3.4%
Cc1sc2ncnc(N(C)Cc3cccs3)c2c1C	1%	-8%	-103%	7%	-14%	1%	-25%	1.5%
O=c1c2ccccc2nc(-c2ccco2)n1CCCn1ccnc1	5%	-2%	-7%	6%	3%	-10%	-13%	0.4%
COc1cccc(-c2nnc(NC(=O)CCS(=O)(=O)c3ccc(C)cc3)o2)c1	?	-6%	·	10%	4%	·	-15%	·
COC(=O)c1nc(Cl)c(Cl)c(N)c1Cl	4%[46.1 µM]	3%	·	0%	-2%	·	9%	·
COc1ccccc1CNS(=O)(=O)c1cccc2nsnc12	24%	0%	13%	-1%	-7%	·	-5%	·
Cc1ccc(-c2noc(C(C)NS(=O)(=O)c3ccc(C)cc3)n2)cc1 (stereo not given)	·	·	·	·	0%[46.1 µM]	-7%	-16%	-4.1%
COC(=O)N/N=C/c1cc(Br)ccc1O	?	0%	-2%	-18%	-27%[46.1 µM]	·	10%	·
COc1ccc(CNC(=O)C(c2ccco2)N(C(=O)CNS(=O)(=O)c2ccccc2)c2ccccc2C)cc1 (stereo not given)	?	26%	3%	1%	?	13%	9%	-5.3%
CC(C)(C)n1nnnc1CN1CCN(C(c2ccccc2)c2ccccc2)CC1	?	9%	-30%	-10%	?	?	?	-1.0%
COc1cc(NS(=O)(=O)c2ccc(NC(=O)c3ccccc3C(=O)O)cc2)nc(OC)n1	1%[46.1 µM]	·	·	·	?	-15%	9%	-1.9%
CCn1ccnc1CN1CCCC(C(=O)c2ccc3c4c(cccc24)CC3)C1 (stereo not given)	?	1%	-3%	-2%	5%[46.1 µM]	·	?	·
O=C(CSC(=S)N1CCCC1)NCCc1ccccc1	?	-7%	·	-5%	?	·	6%	·
CCOc1ccc(C2NC(=O)c3ccccc3O2)cc1OC (stereo not given)	·	-2%	3%	2%	·	·	-4%	·
COc1ccc(-c2cc(C(=O)NCCCN3CCOCC3)no2)cc1	?	0%	0%	-3%	9%	·	-2%	·
The results go on.
SMILES	Marburg entry inh	SARS PLP yeast	NS1 function inh	RE007 growth inh	Lassa entry inh	Cruzain noTriton	2A StopGo	Cruzain inh Det
Cc1oc(-c2cccc(Cl)c2)nc1CSc1nncn2c1cc1occc12	·	·	·	·	6%[46.1 µM]	8%	-8%	7.3%
O=C(CCn1c(=O)oc2ccccc21)Nc1ccon1	13%	-23%	4%	-9%	3%	-20%	0%	-0.5%
COc1cc(S(=O)(=O)NCc2cccnc2)ccc1F	4%	4%	1%	6%	-7%	-25%	15%	6.1%
NC(=S)NN=C(c1ccc(Br)cc1)C1CC1	-4%	·	·	-16%	9%[46.1 µM]	·	-25%	·
COc1ccc2c(CNCCc3ccco3)c(C(=O)O)n(Cc3ccccc3)c2c1	·	·	·	·	?	-2%	0%	-2.7%
COc1ccc(C2=Nc3ccc(F)cc3NC(c3cccc(C(F)(F)F)c3)=N2)cc1	-5%[46.1 µM]	·	·	·	2%[46.1 µM]	?	-25%	-7.7%
COCCNC(=O)CCn1c(=O)c2cc(OC)c(OC)cc2n(CC(=O)Nc2ccc(Cl)cc2F)c1=O	7%[46.1 µM]	·	·	·	-10%[46.1 µM]	8%	-12%	-0.4%
CC1CCC(NC(=O)CN2C(=O)c3cccnc3Oc3ccc(Cl)cc32)CC1 (stereo not given)	?	0%	4%	-15%	?	·	8%	·
CC(C)(C)C(=O)Nc1sc(-c2ccccc2)cc1C(=O)O	?	-2%	-43%	-9%	?	·	16%	·
